YopH inh: blocks Yersinia enterocolitica YopH tyrosine phosphatase; fluorescence Ex485/Em525; 140,000 tested, 0.16% active; inhibition, %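 (about 10 µM by stock and volumes)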; AID 898;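 active = inhibition of 50% or more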;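 note: controls were vehicle for no effect and minimum signal wells for full effect; inactives centre near -20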
Arbovirus inh: blocks arbovirus infection. arbovirus infection cell-based antiviral screen. inhibition, % at 10 µM. 200,000 tested, 0.37% active;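 active = inhibition from about 30%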;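 note: bluetongue infection of BSR cells; cell survival read as ATP light after 72 h; 0% = infected wells without compound and 100% = uninfected wells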
RecA intein inh: Mtb RecA intein splicing inhibition | P9WHJ3 | cell-free RecA intein splicing, fluorescence | inhibition, %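 (about 9 µM by stock and volumes)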 | 290,000 tested, 0.75% active; in the data active = inhibition above about 30%; inconclusive = no clear call, values can overlap the other calls;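 note: 0% = vehicle wells and 100% = reference inhibitor control wells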
Target sequence (P9WHJ3 whole entry, looked up): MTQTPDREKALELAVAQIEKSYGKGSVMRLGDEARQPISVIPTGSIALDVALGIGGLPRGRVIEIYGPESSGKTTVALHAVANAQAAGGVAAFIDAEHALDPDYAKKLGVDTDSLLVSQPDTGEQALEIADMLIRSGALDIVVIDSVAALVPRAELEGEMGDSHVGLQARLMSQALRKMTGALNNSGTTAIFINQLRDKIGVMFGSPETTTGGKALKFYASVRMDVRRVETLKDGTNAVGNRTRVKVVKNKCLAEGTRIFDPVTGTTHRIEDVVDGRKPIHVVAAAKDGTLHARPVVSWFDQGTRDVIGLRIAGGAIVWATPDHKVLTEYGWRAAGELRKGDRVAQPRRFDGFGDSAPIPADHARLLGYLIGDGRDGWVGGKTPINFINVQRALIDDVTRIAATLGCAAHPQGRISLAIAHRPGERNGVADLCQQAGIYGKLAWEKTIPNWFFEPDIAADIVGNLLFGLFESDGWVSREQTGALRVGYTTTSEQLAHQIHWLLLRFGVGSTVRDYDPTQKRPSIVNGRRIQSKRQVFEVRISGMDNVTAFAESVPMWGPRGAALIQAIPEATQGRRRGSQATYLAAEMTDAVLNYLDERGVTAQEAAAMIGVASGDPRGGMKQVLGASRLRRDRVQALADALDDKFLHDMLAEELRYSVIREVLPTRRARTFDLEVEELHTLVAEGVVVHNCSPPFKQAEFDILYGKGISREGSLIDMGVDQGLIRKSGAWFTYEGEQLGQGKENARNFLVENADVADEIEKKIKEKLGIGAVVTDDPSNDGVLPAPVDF
Mtb H37Rv: M. tuberculosis H37Rv growth inhibitors, H37Rv strain (AID 1626); 220,000 tested, 0.95% active; inhibition, % at 10 µM, or IC50 in µM where a hit was titrated; M. tuberculosis H37Rv growth inhibition; higher % means a stronger effect;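 active = confirmed in a dose series; inconclusive = inhibition above 80% but not taken into the dose series; inactive = below 80% or under 30% at every dose of the series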;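 note: bacteria incubated seven days before Alamar blue readout; 0% = bacteria only wells and 100% = bacteria with antibiotic wells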
Mtb betalactam: beta-lactam sensitization of Mtb H37Rv; M. tuberculosis H37Rv growth with meropenem, percent inhibition; hits of this screen are not shown here; inhibition, % at 25 µM; 330,000 tested, 0.27% active; AID 434955;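 active = about 74% or more and at least 40 points above the plate without the antibiotic, then above 30% in a dose series; inconclusive = first-round hits that could not be retested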;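 note: growth measured after seven days incubation then overnight dye step; 0% = bacteria only wells and 100% = bacteria with antibiotic; twin plates without the antibiotic show which effects depend on it; some results filed as inactive read as strong as hits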
Arbovirus inh repeat: further read-out of Arbovirus inh, marked with its call; inhibition, %; measured here: 10K subset replicate screen; many hits read low in the repeat;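 first of two repeat runs on a subset; 0% = infected and 100% = uninfected wells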
* marks the source's active call; other numbers are inactive results; u = inconclusive; x = not tested or not shown. The list is partial, so the mix of outcomes need not match the whole.

Start of the listing, in advance (two entries):
SMILES	YopH inh	Arbovirus inh	RecA intein inh	Mtb H37Rv	Mtb betalactam	others
Cc1ccc(C(=O)NCCn2cc(SCC(=O)Nc3nnc(C)s3)c3ccccc32)cc1	x	-2.2	-0.9	4.8%	-5.3	Arbovirus inh repeat=-7.7
CC(C)OC(=O)C(CC(=O)O)N1CCOCC1 (centres undefined)	-7.5	6.9	1.9	-7.9%	-5.9

The listing (from the top)
SMILES	YopH inh	Arbovirus inh	RecA intein inh	Mtb H37Rv	Mtb betalactam	others
Cc1ccc(C(=O)NCCn2cc(SCC(=O)Nc3nnc(C)s3)c3ccccc32)cc1	x	-2.2	-0.9	4.8%	-5.3	Arbovirus inh repeat=-7.7
CC(C)OC(=O)C(CC(=O)O)N1CCOCC1 (centres undefined)	-7.5	6.9	1.9	-7.9%	-5.9
CC(C)CCn1c(=O)c(C(=O)NCc2ccc3c(c2)OCO3)c(O)c2ccccc21	x	x	-0.7	x	u
CC1CCCN(c2cc3c(cc2[N+](=O)[O-])C(=O)N(c2ccccc2)C3=O)C1 (centres undefined)	-4.6	-1.2	-6.5	-4.6%	-3.4
Cc1cc(C(=O)CSc2nnnn2-c2ccc(Cl)cc2)c(C)n1CC1CCCO1 (centres undefined)	-28.2	-4.9	0.1	-6.1%	3.5
COCCn1cnnc1SCC(=O)Nc1sccc1C(N)=O	x	4.3	-6.5	-15.4%	-0.4
CC(=O)c1cccc(NC(=O)CC(C)n2ccnc2)c1 (centres undefined)	x	x	0.5	x	4.7
COCCNC(=O)CN1C(=O)NC2(CCOc3ccccc32)C1=O (centres undefined)	x	x	-1.6	x	0.0
O=C(Nc1cccc(Cl)c1)c1c(O)c2c(n(Cc3ccco3)c1=O)CCCC2	x	x	-0.1	11.0%	9.7
CCOc1cc(S(=O)(=O)NCc2ccccc2)ccc1Br	x	3.4	6.8	6.3%	77.7
Cc1ccc(Cn2nc(C)c(NC(=O)CCCn3nc([N+](=O)[O-])c(Cl)c3C)c2C)cc1	-16.2	-6.1	0.3	5.8%	-7.3
Cn1nc(-c2ccc(C(=O)N3CCN(CCO)CC3)cc2)c2ccccc2c1=O	7.0	-1.1	1.8	-1.2%	-4.7
COc1ccc(N2CCN(C(=O)c3ccc(CS(=O)c4cccc(C)c4)o3)CC2)cc1 (centres undefined)	x	x	-2.0	x	-5.6
CCOCc1nc(N)[nH]c(=O)c1Cc1ccc(OC(C)C)cc1	-12.6	3.6	-1.7	-11.9%	-8.9
Cc1ccc(NC(=O)CSc2nnc(C3COc4ccccc4O3)o2)c(Cl)c1 (centres undefined)	x	-1.3	1.4	-0.1%	-8.4
CN1CCN(C(c2cccc(Cl)c2)c2ccccc2Cl)CC1 (centres undefined)	-12.1	-4.9	8.6	2.2%	13.3
Cc1ccc(NC(=O)c2ncn[nH]2)cc1	x	16.6	-2.3	-1.1%	3.0
CCCC(=O)NCCCCNC(=O)CCC	-12.6	-1.5	2.8	-4.1%	-5.7	Arbovirus inh repeat=3.3
O=C(Cn1ncc2c([nH]c3ccccc32)c1=O)Nc1ccc(CN2CCCCC2)cc1	x	x	0.1	x	7.1
O=C(O)c1ccc(Nc2nc(-c3ccccc3)cs2)cc1	x	10.9	0.5	3.0%	51.7
CC(=O)Nc1ccc(SC[C@H](CC(C)C)N2CCN(CCc3ccccc3)CCC2=O)cc1	x	x	-7.9	1.1%	32.0
O=C(O)C1CC=CCC1C(=O)NCCc1cccc(Cl)c1 (centres undefined)	-14.0	2.2	2.2	5.0%	0.0
CCOC(=O)c1ccc(N2CCOCC2)c(NC(=O)c2c(-c3ccccc3)noc2C)c1	x	x	10.7	10.8%	-3.1
CCN(CC)S(=O)(=O)c1ccc(-c2csc(C)n2)s1	x	x	-0.6	-5.1%	-8.5
O=C(CC1NCCc2ccccc21)Nc1ccc(Oc2ccccc2)cc1 (centres undefined)	x	-27.2	0.3	9.3%	-5.0
(list continues)
SMILES	YopH inh	Arbovirus inh	RecA intein inh	Mtb H37Rv	Mtb betalactam	others
Cc1ccc(NC(=O)CC2NCCN(Cc3ccccc3)C2=O)cc1 (centres undefined)	x	x	0.2	-7.9%	2.4
C=CCSc1nc2ccccc2n1S(=O)(=O)c1ccc(Cl)cc1	-15.1	7.6	1.9	-0.2%	-2.3
CCCc1c(NC(=O)Nc2ccc(F)cc2)cnn1-c1ccccc1	x	x	0.3	-0.7%	-2.0
CC(C)OC(=O)CC1=NC(=O)CS1	-36.4	1.9	-1.4	-7.6%	1.9
Cc1ccccc1C(=O)Nc1cc(NC(=O)c2ccccc2C)cc(C(=O)O)c1	x	x	-0.9	x	-0.6
Cc1cc(NC(=O)c2cncc(Br)c2)no1	2.5	9.7	5.2	-10.0%	6.3
CCn1c2ccccc2c2cc(C3N=C(N)Nc4nc5ccccc5n43)ccc21 (centres undefined)	-26.4	-2.5	3.1	-6.8%	-10.1
COc1cccc(C(c2nnnn2Cc2ccc(F)cc2)N2CCC(C(N)=O)CC2)c1OC (centres undefined)	-40.4	4.0	-0.3	-1.9%	8.5
Cc1ccc(-n2nc3c(n2)/C(=N/O)CC/C3=N\O)cc1	14.4	-9.2	1.2	-9.8%	7.8
Cc1ccc(C)c(NC(=S)NNC(=O)c2csc(C)c2C)c1	-19.6	-20.7	-0.2	7.4%	7.4
CCc1cccc(NC(=O)c2ccc(CNc3c(N4CCCC4)c(=O)c3=O)cc2)c1	x	x	1.7	5.3%	-3.8
O=C(c1ccc2[nH]c(=O)c(=O)[nH]c2c1)N1CCN(c2ccccc2)CC1	x	x	2.8	x	-3.0
C=CCn1c(=O)c(C(=O)Nc2cc(C)ccn2)c(O)c2ccccc21	x	x	-0.9	x	2.2
Cc1nn(C)cc1NC(=O)c1nn(C)cc1[N+](=O)[O-]	-17.0	4.9	-9.1	0.4%	-1.2
COc1ccc(N2CCN(C(=O)c3ccc(CNS(=O)(=O)c4cc(C)ccc4C)cc3)CC2)cc1	x	x	-1.7	x	-0.9
Cc1cccc2cc(C(c3nnnn3Cc3ccccc3)N3CCN(c4ccccc4)CC3)c(=O)[nH]c12 (centres undefined)	-9.8	1.9	-12.3	-1.5%	1.4
COCCNC(=S)N1CCc2cc(OC)c(OC)cc2C1c1cccs1 (centres undefined)	x	4.6	1.1	-0.9%	-3.1
CCOC(=O)c1cc(CC)sc1/N=C/C1C(=O)NC(=S)NC1=O	x	-1.7	-8.4	1.6%	0.9
COc1ccc(-c2csc3nc[nH]c(=O)c23)cc1OC	x	x	-1.3	x	1.2
CCn1c(=O)c(CCC(=O)N2CCN(c3ccccn3)CC2)c(C)c2c(C)nn(-c3cccc(C)c3)c21	x	x	-2.8	x	97.6
CCc1ccc(NC(=O)CS(=O)CC(=O)NCC2OCCc3ccccc32)cc1 (centres undefined)	-27.4	-1.6	0.9	-5.8%	-3.8
Cc1ccc(C(=O)N/N=c2\oc3ccccc3cc2C(N)=O)cc1	x	x	-1.8	x	5.3
O=C(COc1ccc(-n2ccnc2)cc1)Nc1cccc(F)c1	x	x	-2.6	-0.1%	-0.4
O=[N+]([O-])c1ccc(SCc2ccncc2)nc1	x	x	-0.6	x	-1.2
CC(C)CNC(=O)COC(=O)C1c2ccccc2Oc2ccccc21	x	x	-1.8	x	10.9
(cont.)
SMILES	YopH inh	Arbovirus inh	RecA intein inh	Mtb H37Rv	Mtb betalactam	others
COC(=O)c1ccc(Cn2cnc3c(sc4nc(N5CCOCC5)c5c(c43)CCCC5)c2=O)o1	-26.9	-18.3	5.3	10.6%	9.4
Cc1ccc(C(=O)NNC(=O)c2cccs2)cc1	x	1.6	0.7	3.8%	-1.7
COc1ccccc1-n1c(C)cc(/C=C2\C(=N)N3N=C(CC(=O)N4CCOCC4)SC3=NC2=O)c1C	x	x	7.1	x	1.0
CC(C)NC(=O)NC(=O)CN1C(=O)NC2(CCc3ccccc3C2)C1=O (centres undefined)	x	x	-0.1	x	-5.9
O=C(COC(=O)c1c2ccccc2cc2ccccc12)NCC(F)(F)F	-14.2	-19.1	-11.4	15.8%	81.0
CN(Cc1nc(-c2ccc3c(c2)OCO3)no1)CC1(N2CCOCC2)CCCCC1	x	-11.4	-2.0	7.5%	0.8
CCOC(=O)c1sc2ncn(/N=C/c3cccnc3)c(=O)c2c1C	-16.3	-5.8	3.6	0.2%	4.6
COc1cccc(C2=NO[C@@H]3C(=O)N(Cc4ccccc4)C(=O)[C@H]23)c1OC	5.3	5.6	-0.3	-8.3%	-0.8
CC(=O)c1ccc(-c2nnc(CCC(=O)N3CCCC(C(=O)CC(C)C)C3)o2)s1 (centres undefined)	x	x	0.4	x	-3.6
COc1ccc(NC(=O)CN(C)C(=O)CSCc2ccc(C)cc2)cc1	x	x	1.3	x	-5.7
Cc1ccc(CN2CCN(CC(=O)N3CCC4(CC3)OCCO4)C2=O)cc1	-5.9	5.9	-0.2	-2.9%	15.2
COCCCN1C(=O)C(=O)/C(=C(/O)c2ccc(C)cc2)C1/C=C/c1ccccc1 (centres undefined)	x	-1.7	0.8	3.0%	-0.6
CCN1CCN(CCNC(=O)c2ccc(/C=C3/Sc4ccccc4N(Cc4ccccc4C)C3=O)cc2)CC1	x	-25.0	7.1	18.7%	x
c1ccc(-c2ccc(OCCCn3cncn3)cc2)cc1	2.1	8.2	x	9.9%	4.6
Cc1cc(N2CCN(c3ccccc3)CC2)nc(NCc2ccccc2)n1	-30.9	8.3	x	71.0%	46.1
CCn1c2c(c3cc(Cl)ccc31)CCCC2=O	-34.9	-3.2	2.7	9.5%	-1.9	Arbovirus inh repeat=0.8
CC1C(=O)C(C)(C)C(=O)OC1c1ccc([N+](=O)[O-])cc1 (centres undefined)	x	x	-1.5	x	2.5
OCCC1CCCCN1CC(O)COCc1ccc(Cl)cc1 (centres undefined)	x	x	6.3	x	-1.6
C=CCn1c(SCC(=O)NCCCO)nc2sc3c(c2c1=O)CCC3	x	x	1.4	x	-2.0
Cc1cccc(C)c1OCC(=O)Nc1cccc(-c2nnc(-c3ccccc3)o2)c1	-17.1	11.1	-3.8	10.7µM*	99.1
COc1ccc(N(C(=O)c2snc(C(N)=O)c2N)C(C(=O)NCc2ccc(F)cc2)c2ccc(O)cc2)cc1 (centres undefined)	x	x	18.7	x	36.0
O=C(Cn1c(SCC(=O)N2CCc3ccccc3C2)nc2ccccc21)NC1CCCC1	0.4	-4.2	0.6	-3.9%	0.8
CC1CCN(c2ccc3nnc(CCC(=O)NCC(C)c4ccccc4)n3n2)CC1 (centres undefined)	x	x	-3.8	x	1.2
COCCN(C(=O)CNC(=O)c1ccco1)C(C(=O)NC1CCCC1)c1ccc(OC)c(OC)c1 (centres undefined)	x	x	4.7	x	0.5
CC(=O)Nc1ccc(C(c2c(O)c3ccccc3oc2=O)c2c(C)n(C)n(-c3ccccc3)c2=O)cc1 (centres undefined)	x	2.9	-2.0	-10.3%	-5.9
(listing goes on)
SMILES	YopH inh	Arbovirus inh	RecA intein inh	Mtb H37Rv	Mtb betalactam	others
CN(C(=O)c1cccc(NC(=O)c2ccco2)c1)c1ccccc1	x	x	1.0	x	-6.9
CCOC(=O)/C=C/C(=O)Nc1ccc(S(=O)(=O)N2CCCCCC2)cc1	x	5.3	-0.1	-0.7%	-8.7
O=c1cccc2n1CC1CC2CN(Cc2c(F)cccc2Cl)C1 (centres undefined)	-29.8	-1.9	0.9	-2.2%	-5.4
O=C(c1oc2ccccc2c1CSCc1ccccc1)N1CCN(c2ncccn2)CC1	-15.7	-16.7	12.5	-1.2%	20.7
O=C(O)/C(=C\c1ccc(-c2ccc(F)cc2)o1)c1ccccc1	x	44.1*	x	-12.6%	x
CCOC(=O)/C=C/C(=O)OCC(=O)Nc1ccc(C)cc1	x	17.3	3.2	-11.6%	-8.0
O=C(NCCCN1CCCC1=O)c1ccc(NS(=O)(=O)c2cccc([N+](=O)[O-])c2)cc1	x	x	-4.0	x	-6.7
COc1ccc(N=C2SC(CC(=O)Nc3cccc(Cl)c3)C(=O)N2Cc2ccco2)cc1 (centres undefined)	-14.3	-13.3	2.7	9.1%	-36.4
COc1ccc(C(=O)/C=C/NCc2ccc(C)cc2)cc1	-18.4	x	2.5	-14.6%	-2.8
C=CCn1c(=S)[nH]c2cc(-c3ccccc3)sc2c1=O	x	x	-0.5	x	11.1
Cc1ccc(-c2noc(CCC(=O)NCCCN3CCN(c4ccc(F)cc4)CC3)n2)cc1	-30.2	-32.7	-5.2	-9.5%	5.5

Random excerpt: four entries already listed
SMILES	YopH inh	Arbovirus inh	RecA intein inh	Mtb H37Rv	Mtb betalactam	others
CCOC(=O)/C=C/C(=O)Nc1ccc(S(=O)(=O)N2CCCCCC2)cc1	x	5.3	-0.1	-0.7%	-8.7
O=c1cccc2n1CC1CC2CN(Cc2c(F)cccc2Cl)C1 (centres undefined)	-29.8	-1.9	0.9	-2.2%	-5.4
CCOC(=O)/C=C/C(=O)OCC(=O)Nc1ccc(C)cc1	x	17.3	3.2	-11.6%	-8.0
CN(C(=O)c1cccc(NC(=O)c2ccco2)c1)c1ccccc1	x	x	1.0	x	-6.9

Bioassay records as filed in PubChem.
